26S disassembly = inhibitors of ATP-driven 26S proteasome dissociation, primary screen, biochemical, bead-based flow cytometry, GFP-tagged proteasome. anti-FLAG beads, GFP-proteasome disassembly. inhibition of disassembly, % (no concentration beside the values). 0.2% of 24,000 active. AID 751, 2007;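 active means above 40%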;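 further: plate controls were ATP control with full disassembly for no effect and ATP-gamma-S intact proteasomes for full effect; higher percent means more bead fluorescence retained so stronger block of disassembly; stock transfer was 100 nL into about 10 µL; wells with too few beads may also be inconclusive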
VCAM-1 rise = enhancers of VCAM-1 display on endothelial cells, cell-based, plate reader, pooled HUVEC, TNFa stimulus (AID 455). HUVEC TNFa-induced VCAM-1 immunofluorescence, plate reader; numbers were filed only for top-ranked candidate wells. augmentation, % at 5 µM. 0.2% of 10,000 active;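 active means a compound raising TNF-alpha-driven VCAM-1 surface staining, with its hit status upheld on visual or statistical review; inactive means the rest, including hits rejected on review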;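 further: 0% = TNFa with vehicle and 100% = strongest image-checked hit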
* hit, by the source's call; i = inactive; . = not tested or not shown. These rows are one share of the data, so the mix of outcomes need not match the whole.

Start of the listing, in advance (six entries):
Every second line gives: 26S disassembly	VCAM-1 rise
> CCCCCCNC(=O)c1c(N)n(/N=C/c2ccco2)c2nc3ccccc3nc12
  4.2	i
> Cc1cc(-c2ccccc2)nc2cc(C(N)=O)nn12
  0.3	i
> COc1cc(Cl)c(C)cc1NC(=O)COC(=O)c1cnc(C)cn1
  -2.5	i
> COc1ccc(-n2nc(C(=O)Nc3ccc4c(c3)OCO4)c3ccccc3c2=O)cc1
  1.1	.
> CCOc1ccccc1C1CC(=O)NC2=C1C(=O)CC(C)(C)C2 (stereo unspecified)
  0.5	.
> CCN(CC)CCOC(=O)c1cccc(OC)c1
  1.4	i

Results, from the start:
Every second line gives: 26S disassembly	VCAM-1 rise
> CCCCCCNC(=O)c1c(N)n(/N=C/c2ccco2)c2nc3ccccc3nc12
  4.2	i
> Cc1cc(-c2ccccc2)nc2cc(C(N)=O)nn12
  0.3	i
> COc1cc(Cl)c(C)cc1NC(=O)COC(=O)c1cnc(C)cn1
  -2.5	i
> COc1ccc(-n2nc(C(=O)Nc3ccc4c(c3)OCO4)c3ccccc3c2=O)cc1
  1.1	.
> CCOc1ccccc1C1CC(=O)NC2=C1C(=O)CC(C)(C)C2 (stereo unspecified)
  0.5	.
> CCN(CC)CCOC(=O)c1cccc(OC)c1
  1.4	i
> Cc1ccc(C(C(=O)NC2CCCCC2)N(C(=O)c2csnn2)C2CCCC2)o1 (stereo unspecified)
  -0.1	i
> COc1cc(C(=O)NCCC(=O)NCCN2CCOCC2)cc(OC)c1OC
  -2.5	.
> c1nnc(NC2=NCCCCC2)s1
  -1.8	i
> Cc1cc(C)c2cc3c(ccn3C3OC[C@H](O)[C@H](O)[C@H]3O)cc2n1 (stereo partly specified)
  4.0	i
> CCOc1ccc(C2C(C#N)=C(N)Oc3cc(C)n(Cc4ccco4)c(=O)c32)cc1OC (stereo unspecified)
  0.1	i
> CC(=O)Oc1ccc(-c2ccc(C(=O)O)cc2)cc1
  -0.1	i
> Cc1ccc(Cl)cc1N1CCN(C(=O)c2cc3c(=O)n(C)c4ccccc4c3n2C)CC1
  -1.5	.
> COc1cccc(Nc2cc(C)nc3ccccc23)c1
  1.3	i
> COC(=O)CCCCCNc1ccc(C(=O)OC)cc1N
  3.6	i

Shown as tab-separated lines: entries from further up
structure	26S disassembly	VCAM-1 rise
Cc1cc(C)c2cc3c(ccn3C3OC[C@H](O)[C@H](O)[C@H]3O)cc2n1 (stereo partly specified)	4.0	i
CC(=O)Oc1ccc(-c2ccc(C(=O)O)cc2)cc1	-0.1	i

(continued)
Every second line gives: 26S disassembly	VCAM-1 rise
> COc1ccccc1/C=c1\sc2nc(-c3ccncc3)nn2c1=O
  2.2	.
> Cn1nc(-c2ccc(Cl)cc2)c2cc(C(=O)NCCCN3CCOCC3)sc21
  -2.5	.
> Cc1ccc2cc(CN(CC(C)C)C(=O)C3CCCO3)c(=O)[nH]c2c1 (stereo unspecified)
  6.1	i
> [O-][N+]12CC[N+]([O-])(CC1)c1ccccc12
  -2.6	.
> Cc1noc(C)c1S(=O)(=O)N1CCC(C(=O)N2CCN(c3ccccc3Cl)CC2)CC1
  -2.7	.
> CCn1c(=O)c2cc(C(=O)N3CCN(C(=O)c4ccco4)CC3)sc2c2ccccc21
  -2.2	.
> COc1cc2c(cc1OC)C(C)N(C(=O)c1cc3n(n1)C(C(F)(F)F)CC(c1ccco1)N3)CC2 (stereo unspecified)
  0.2	i
> CC1=C(C(=O)N2CCCCCC2)C2(CCC(C)CC2)OC1=O (stereo unspecified)
  -0.1	.
> C=CCOC(=O)C(C#N)c1nc2ccccc2nc1N1CCN(Cc2ccccc2)CC1 (stereo unspecified)
  4.7	i
> O=C(CCN1C(=O)C2C3C=CC(C3)C2C1=O)NCc1cccnc1 (stereo unspecified)
  0.2	.
> CC1CCc2nc3ccc(S(=O)(=O)N4CCC(C(=O)NC5CCCC5)CC4)cc3c(C(=O)O)c2C1 (stereo unspecified)
  -0.6	.
> O=C1COc2ccc(C(=O)NCc3ccco3)cc2N1
  0.4	i
> Cc1ccc2nc(-c3ccc(S(=O)(=O)N4CCOCC4)cc3)cn2c1
  0.8	i
> Cc1ccc(C(=O)NCCCN2CCOCC2)cc1N1CCCC1=O
  0.9	.
> CC(=O)N1CCC(N(C(=O)Nc2ccc(C)c(C)c2)C2CCCC2)CC1
  0.4	i

The list continues.
Every second line gives: 26S disassembly	VCAM-1 rise
> OC(CN1CCN(c2ccccc2)CC1)c1ccc2c(c1)CCN2 (stereo unspecified)
  -0.1	i
> COc1cc(-c2nc(N)n[nH]2)cc(OC)c1OC
  0.0	.
> Cc1oc(-c2ccccc2)nc1Cn1cccc1C1=NC(c2ccccc2)CO1 (stereo unspecified)
  -0.4	.
> Cc1cc(C)cc(N(CC(=O)NCc2ccco2)S(=O)(=O)c2c(C)noc2C)c1
  -0.5	.
> O=C(CCNS(=O)(=O)c1cccc2nonc12)NC1CCCc2ccccc21 (stereo unspecified)
  2.3	.
> O=C(CCCCn1c(=O)[nH]c2ccsc2c1=O)NCc1cccnc1
  -0.5	i
> CCOC(=O)c1oc2ccccc2c1NC(=O)c1ccc(S(=O)(=O)N2CCCC2)cc1
  0.0	.
> CCC(Sc1ccc2nnc(-c3ccc(F)cc3)n2n1)C(=O)O (stereo unspecified)
  -1.5	.
> O=C(NCc1ccco1)c1sc(=S)n2c1[nH]c(=O)c1ccccc12
  2.8	.
> CCOc1ccc(-c2nnc3ccc(SC)nn23)cc1
  -0.1	.
> CC(C)N(Cc1nc(-c2ccc(Cl)cc2)no1)C(=O)CCC1CCCC1
  5.0	.
> COC(=O)c1ccc(-c2nc(-c3cccs3)no2)cc1
  0.8	.
> CCn1c(=S)sc2c(=O)n(-c3ccccc3)c(SCC(=O)NCc3ccco3)nc21
  -0.1	.
> O=C(Cn1c(=O)sc2ccccc21)NCc1ccccn1
  -1.0	.
> COC(=O)c1ccc(CSc2nc(-c3ccc(OC)cc3)nc3c2c(=O)n(C)c(=O)n3C)o1
  -1.7	i

New compounds follow.
Every second line gives: 26S disassembly	VCAM-1 rise
> CC1CCCN(c2ccc(C(=O)NCc3cccs3)cn2)C1 (stereo unspecified)
  3.5	i
> CC(=O)Nc1ccc2c(c1)CCC2=O
  -1.9	.
> O=C(CCN1C(=O)C2C3C=CC(C3)C2C1=O)NC1CCCc2ccccc21 (stereo unspecified)
  0.5	i
> CCc1ccc(N(CC(=O)O)S(=O)(=O)c2c(C)noc2C)cc1
  -0.3	.
> Cn1c([N+](=O)[O-])cnc1COC(N)=O
  -0.3	i
> CCOCCCn1c(=S)[nH]c2cc3c(cc2c1=O)OCO3
  0.3	i
> COc1ccc(CCNC(=O)CN(C)S(=O)(=O)c2cccc3nsnc23)cc1OC
  -0.9	.
> COc1ccc(-c2nnc(SCCC(=O)O)n2-c2ccccc2)cc1
  -2.0	i
> COc1ccccc1CNC(=O)CN(c1ccc(C)cc1)S(=O)(=O)c1c(C)nn(C)c1C
  -0.7	.
> CCOc1cc(C)c(C(C)C)cc1S(=O)(=O)N1CCN(C)CC1
  -2.6	i
> CCn1c(=O)n(CC(=O)Nc2cccc(OC)c2)c(=O)c2ccccc21
  -0.2	.
> COc1cc2c(cc1OC)CN(CC(=O)Nc1cccc(C)c1)CC2
  3.6	i
> O=C(CCN1C(=O)C2CC=C(Cl)CC2C1=O)NC1CCCCC1 (stereo unspecified)
  1.4	.
> Cc1oc(-c2cccc(Cl)c2)nc1CN1CCC(C(=O)NCc2ccco2)CC1
  4.6	.
> Cn1c(=Nc2ccc(N3CCOCC3)cc2)ccc2ccccc21
  -0.6	.

Later entries:
Every second line gives: 26S disassembly	VCAM-1 rise
> O=S(=O)(c1cccc(-c2nnco2)c1)N1CCCC1
  0.5	i
> CCCNS(=O)(=O)c1cc(Br)cc2c1N(C(=O)CC)CC2
  -1.0	.
> O=C(c1ccco1)N1CCN(S(=O)(=O)c2ccc(C3CCCCC3)cc2)CC1
  1.6	i
> Cc1nc2ccccc2c2oc(C(=O)N3CCC(N4CCCCC4)CC3)cc12
  1.0	i
> CN(C)S(=O)(=O)c1ccc(S(=O)(=O)N2CCN(CCC#N)CC2)cc1
  -0.3	.
> COc1cccc(-c2cc(C(F)(F)F)nc(N3CCC(C)CC3)n2)c1
  1.0	.
> Cc1nc(NC(=O)C23CCC(C)(C(=O)O2)C3(C)C)sc1C (stereo unspecified)
  0.1	i
> Cn1c(SCC(=O)Nc2ccc(F)cc2F)nnc1-c1cccnc1
  -0.5	.
> O=c1c2ccccc2[nH]c(=S)n1CCN1CCC(=C(c2ccc(F)cc2)c2ccc(F)cc2)CC1
  0.8	i
> Cn1c(=O)c2c(O)cc(=O)n(-c3ccccc3)c2n(C)c1=O
  0.7	.
> CCn1cc(C(=O)NCc2ccco2)c(=O)c2cc(F)c(N3CCN(C(=O)c4ccco4)CC3)cc21
  1.2	i
> CC(C)(C)c1ccc(-c2cc(N)n[nH]2)cc1
  -6.2	.
> C1CSC2(N1)C1CC3CC(C1)CC2C3 (stereo unspecified)
  -2.2	.
> CCOc1ccc(C2/C(=C(/O)c3ccc(OC)cc3)C(=O)C(=O)N2c2cc(C)on2)cc1OC (stereo unspecified)
  0.1	i
> CCC(C(=O)NCc1ccco1)n1nc(-c2ccc(OC)cc2)ccc1=O (stereo unspecified)
  5.8	.

Following part.
Every second line gives: 26S disassembly	VCAM-1 rise
> O=c1[nH]c(N2CCCCC2)nc2c1CCCC2
  -0.7	i
> Cc1cc(C(=O)Nc2sc3c(c2C#N)CCCC3)no1
  -1.8	.
> CN(C(=O)c1ccno1)c1nnc(-c2cnccn2)s1
  0.1	i
> CCc1cccc(NS(=O)(=O)c2ccc3c(c2)oc(=O)n3C)c1
  -0.5	.
> CCOc1ccc(C(=O)CN2CCN(S(=O)(=O)c3ccc(OC)cc3)CC2)cc1
  -0.3	i
> CCOC(=O)c1cc2c(=O)n3cccc(C)c3nc2n(Cc2ccco2)c1=NC(=O)c1cccnc1
  1.1	i
> CC(C)(C)n1ncc2c(=O)n(CC(=O)NCc3ccco3)cnc21
  0.5	i
> CCc1nc2sc3ccccc3c(=O)c2c(=O)n1Cc1ccco1
  5.7	i
> O=C(O)Cn1c(-c2ccccc2)nc2ccccc21
  -2.9	.
> COC1(OC)N=C(N)C2(C#N)C(c3ccc4c(c3)OCO4)C12C#N (stereo unspecified)
  -1.5	.
> O=C(Nc1cc(C(F)(F)F)ccc1Cl)c1cc(C2CC2)on1
  -0.7	i
> O=C(NCCc1ccccc1)c1cc(-c2ccc3c(c2)OCO3)on1
  1.1	.
> CCOC(=O)c1cnc2ccc(OCC)cc2c1N1CCN(C)CC1
  -1.1	.
> COc1nc(Oc2ccc(C(=O)OCC(N)=O)cc2)nc(N(C)C)n1
  0.7	.
> O=C(c1ccco1)N1CCN=C1SCc1cccc(F)c1
  1.9	.

Further entries:
Every second line gives: 26S disassembly	VCAM-1 rise
> COc1ccccc1NC(=O)CSc1nnc(CNC(=O)COc2ccc(Cl)cc2)o1
  -1.1	.
> Cc1noc(C)c1S(=O)(=O)N1CCCC(C(=O)NCCc2ccc(Cl)cc2)C1 (stereo unspecified)
  4.3	i
> O=C1NCCCc2c1oc1cc(Br)c(O)c(Br)c21
  2.0	.
> O=C(CSc1nnc(-c2cccs2)o1)N1CCOCC1
  1.6	i
> COc1cc(OC)c(C2N(c3ccccn3)C(=O)C3CCCN32)cc1OC (stereo unspecified)
  1.4	.
> COc1ccc2[nH]c3c(c2c1)CN(C)CC3
  1.9	.
> CCc1ccccc1NC(=O)CSC1=C(C#N)C(c2ccc(O)c(OC)c2)C2=C(CCCC2=O)N1 (stereo unspecified)
  -1.9	i
> O=[N+]([O-])c1cccc2cn[nH]c12
  -1.6	i
> CCOC(=O)c1c(C)oc2ccc(OCC(N)=O)cc12
  -2.2	i
> COCc1[nH]nc2c1C(C1C=CCCC1)C(C#N)=C(N)O2 (stereo unspecified)
  0.6	i
> CCCC(=O)N1CCN(S(=O)(=O)c2cc(Cl)ccc2OC)CC1
  -2.1	.
> CCOC(=O)N1CCC(NC(=O)c2ccc3nc(N4CCOCC4)sc3c2)CC1
  -0.5	i
> CC(C)Cn1cc(C(=O)N2CCOCC2)c2c3ccccc3n(C)c2c1=O
  2.0	.
> O=C(CSc1ncnc2c1nnn2Cc1ccccc1F)N1CCN(c2ccccc2)CC1
  2.1	.
> CCOC(=O)c1cc(-c2ccccc2)n(CC(=O)O)c1C
  -0.2	.

Next section
Every second line gives: 26S disassembly	VCAM-1 rise
> O=C(CN1CCN(S(=O)(=O)c2ccc(F)cc2)CC1)Nc1ccc2c(c1)OCO2
  0.5	.
> Cc1ccc(S(=O)(=O)N2CCN(C(=O)CN3C(=O)NC4(CCOc5ccccc54)C3=O)CC2)cc1 (stereo unspecified)
  -2.5	i
> CN(C)CCn1c(C(=O)Nc2ccccc2)cc2ccccc21
  0.3	.
> CCC1Sc2ccccc2N(CC(=O)NCCC(C)C)C1=O (stereo unspecified)
  1.9	.
> CCn1c(=O)cc(SCC(=O)NCCN2CCN(Cc3ccccc3)CC2)c2ccccc21
  0.4	i
> COCCN1CSC(=S)N(Cc2ccco2)C1
  -0.5	.
> COC(=O)c1cc2oc(C)cc2n1CC(=O)N(C)c1ccccc1
  0.9	i
> COc1ccc(Cc2nc(-c3ccc(Br)o3)no2)cc1OC
  -0.2	.
> Fc1ccccc1N1CCN(c2nc3ccccc3n3nnnc23)CC1
  14	.
> Cn1c(SCC(=O)Nc2ccccc2F)nnc1-c1cccnc1
  -0.3	.
> COc1ccc(C(=O)c2coc3ccc(O)c(CN4CCOCC4)c23)cc1
  1.3	.
> CN1CCc2c(sc3c2C(=O)NC(c2cccc(OC(=O)c4cccs4)c2)N3)C1 (stereo unspecified)
  31	i
> O=C1CCC(=O)N1c1cccc(-c2nc3ccccc3o2)c1
  1.0	.
> COc1cccc(C2NC(CC(C)C)(C(=O)O)C3C(=O)N(Cc4ccccc4)C(=O)C23)c1O (stereo unspecified)
  2.1	.

Compound activity: PubChem BioAssay, several laboratories
